High-throughput results (PubChem)
B2AR ag = beta2AR agonists driving receptor internalization, primary screen, cell-based, FAP fluorogen, flow cytometry; Beta-2 adrenergic receptor (Homo sapiens), P07550; Am2.2-beta2AR cells; reference of the scale not given here; response, % (no concentration beside the values); 340,000 tested, 0.43% active; AID 504454, 2011;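 active = response above a set limit, near 3 SD of response in nonfluorescent compounds, cut at about 42% in these data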;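 note: stock transfer was 100 nL into about 11 µL; a reference agonist was the positive control; negative values mostly stem from fluorescent compounds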
Target sequence (P07550 whole entry, looked up): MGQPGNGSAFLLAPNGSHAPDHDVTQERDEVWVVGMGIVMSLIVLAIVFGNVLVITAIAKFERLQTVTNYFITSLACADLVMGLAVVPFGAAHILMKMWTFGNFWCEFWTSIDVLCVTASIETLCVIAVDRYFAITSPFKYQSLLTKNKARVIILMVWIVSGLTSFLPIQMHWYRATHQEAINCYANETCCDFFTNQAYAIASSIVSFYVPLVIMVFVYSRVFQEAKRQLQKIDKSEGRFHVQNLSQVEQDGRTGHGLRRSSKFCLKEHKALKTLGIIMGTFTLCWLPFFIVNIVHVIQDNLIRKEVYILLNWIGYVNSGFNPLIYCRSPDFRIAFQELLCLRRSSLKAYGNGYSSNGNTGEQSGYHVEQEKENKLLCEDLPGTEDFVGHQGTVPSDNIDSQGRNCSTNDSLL
LANA-H2A inh = blockers of LANA interaction with H2A/H2B – biochemical, FP readout, HTS, primary screen; Protein LANA1 (Human herpesvirus 8 type P (isolate GK18)), Q9QR71; cell-free LANA-H2A/H2B peptide, fluorescence polarization; inhibition, % (no concentration beside the values); 320,000 tested, 0.6% active; AID 2629, 2010; in the data active = inhibition mostly above about 10%, no sharp cut-off; inactive = mostly below about 6.7%;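 note: stock transfer was 7.5 nL into about 10 µL; 0% = median of vehicle wells and 100% = median of positive control wells; one replicate is shown; the record names a cut of 25% in any replicate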
ALR H2O2 inh = inhibitors of human ALR sulfhydryl oxidase, primary screen, biochemical, H2O2 detection, HRP-luminol luminescence, single point; AID 485317, 2010; FAD-linked sulfhydryl oxidase ALR (Homo sapiens), P55789; purified ALR, DTT oxidation; inhibition, % (test concentration not listed); 290,000 tested, 3.8% active;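 active = mean and each replicate at 75% or more; inconclusive = only one of the two met; inactive = neither met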;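 note: stock transfer was 7.5 nL into about 7.5 µL; 0% = neutral wells and 100% = wells with inactivated enzyme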
Target sequence (P55789 whole entry, looked up): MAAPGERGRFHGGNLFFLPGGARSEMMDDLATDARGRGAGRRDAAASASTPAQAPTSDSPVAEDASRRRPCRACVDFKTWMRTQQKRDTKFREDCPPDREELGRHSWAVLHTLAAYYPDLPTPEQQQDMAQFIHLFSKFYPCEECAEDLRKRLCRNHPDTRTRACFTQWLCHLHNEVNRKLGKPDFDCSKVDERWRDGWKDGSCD
Calb FLC = C. albicans growth inhibition with fluconazole, primary screen, CaCi-2 strain, Alamar Blue fluorescence. C. albicans CaCi-2 (fluconazole-resistant clinical isolate) + fluconazole, 48 h. growth inhibition, % (test concentration not listed). 300,000 tested, 0.57% active;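 active = most replicates above 75%; inconclusive = exactly half above 75%; inactive = most below 75%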;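 note: all wells also contain fluconazole at 8 µg/ml as a sub-toxic cotreatment; 0% = median of DMSO wells and 100% = median of geldanamycin control wells; wells of about 8 µL received 7.5 nL stock; the first replicate is given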
Vif A3G = inhibitors of Vif binding to APOBEC3G peptide, primary screen, biochemical, TR-FRET, GST-Vif 1-94, biotin-A3G peptide, dose response retest (AID 1117319). one-dose inhibition, %; IC50 in µM for titrated hits. 260,000 tested, 0.57% active. Virion infectivity factor (Human immunodeficiency virus type 1 group M subtype B (isolate …. TR-FRET GST-Vif / biotin-A3G peptide binding; higher % means a stronger effect; test concentration not given here; strong numbers were not always called active;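 active = above the screen mean plus three standard deviations and confirmed in dose response; inconclusive = results disagree or hit not tested in dose response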;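 note: Vif residues 1-94 fused to GST binding biotinylated APOBEC3G peptide 110-148; 0% = full assay without inhibitor and 100% = GST in place of GST-Vif; retest series ran down from 100 µM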
HNF4A DNA FP = change in binding of human HNF4A to DNA, primary screen, biochemical, fluorescence polarization, FITC-DNA | Hepatocyte nuclear factor 4-alpha (Homo sapiens), P41235 | 1 h | activity change, % at 10 µM | 360,000 tested, 0.3% active | AID 1224865, 2016; in the data active = activity change above about 30%, passing the limit was not always enough;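 note: controls were the assay level and a saturating level of protein; the project sought stronger binding though the title names inhibitors; some compounds called inactive have numbers as strong as hits; positive values seem to mean higher polarization but the record does not say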
Target sequence (P41235 whole entry, looked up): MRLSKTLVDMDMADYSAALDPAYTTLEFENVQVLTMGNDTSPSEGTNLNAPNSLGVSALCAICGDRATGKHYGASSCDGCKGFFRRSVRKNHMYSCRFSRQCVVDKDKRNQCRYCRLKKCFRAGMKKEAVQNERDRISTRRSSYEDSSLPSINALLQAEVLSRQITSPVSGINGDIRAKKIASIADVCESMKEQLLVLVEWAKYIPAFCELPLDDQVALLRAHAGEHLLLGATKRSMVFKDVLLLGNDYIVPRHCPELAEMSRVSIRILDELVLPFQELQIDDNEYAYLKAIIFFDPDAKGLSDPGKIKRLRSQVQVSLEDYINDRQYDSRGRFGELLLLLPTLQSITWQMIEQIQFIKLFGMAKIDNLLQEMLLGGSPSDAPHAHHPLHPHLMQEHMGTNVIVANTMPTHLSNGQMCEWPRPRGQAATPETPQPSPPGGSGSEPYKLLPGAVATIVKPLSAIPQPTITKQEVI
RanGTP-Impb inh = inhibitors of RanGTP-importin-beta interaction, primary screen, biochemical, FRET, CFP-Ran, YFP-importin-beta, homogeneous | Ran GTPase (GTP-bound) - importin-beta complex | cell-free CFP-Ran/YFP-importin-beta FRET ratio | inhibition, % (no concentration beside the values) | 300,000 tested, 1.1% active | AID 2216, 2009;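 active = most replicates above 15%; inconclusive = exactly half above 15%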;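 note: 0% = DMSO wells and 100% = Ran loaded with GDP instead of GTP; wells of about 40 µL received 100 nL stock; the first replicate is given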
* hit, by the source's call; i = inactive; ? = inconclusive; / = not tested or not shown.

SMILES	B2AR ag	LANA-H2A inh	ALR H2O2 inh	Calb FLC	Vif A3G	HNF4A DNA FP	RanGTP-Impb inh
COCC(=O)n1nc(-c2ccccc2)nc1NCc1ccc(N(C)C)cc1	-1	1.4	23	-26	-5%	-0.1	-1.0
O=C(Nc1ccccc1)/C(=C\c1ccc2c(c1)OCO2)NC(=O)c1ccco1	4	3.7	-11	-5	11%	1.9	-2.1
N=c1ccn(Cc2ccc(Cl)cc2)cc1	6	5.4	-14	-14	78%	-2.2	-3.3
O=S1(=O)CCN=C2SC3=C(CCCC3)N21	-13	3.8	-5	-4	?	1.1	1.2
Cc1ccc(CSCC2Nc3ccc(C(=O)N4CCN(c5ccc(F)cc5)CC4)cc3NC2=O)cc1 (stereo not given)	-9	1.3	2	0	/	38*	-5.1
CN1C2CCC1CC(NC(=O)CSc1ccc(Cl)cc1)C2 (stereo not given)	-3	-5.1	/	-1	/	2.6	?
COc1ccc(-c2ccc(SC)nn2)cc1	-8	0.1	-12	1	-9%	2.2	-0.6
CCC1CCCCN1C(=S)Nc1ccc(S(=O)(=O)Nc2ncccn2)cc1 (stereo not given)	4	-6.1	-6	0	2%	1.0	1.0
CCOC(=O)Cc1c(C)nc2c(-c3ccc(Cl)cc3)cnn2c1C	-7	5.8	3	23	11%	-2.8	0.2
N#CCSc1nc2c(cc1C#N)CCCC2	-9	-1.5	-1	18	24%	2.6	-0.9
Cc1nn(Cc2cccc(C(=O)O)c2)c(C)c1[N+](=O)[O-]	0	-4.9	/	1	1%	7.3	9.6
O=C(CSc1nnc(NC(=O)c2ccc(F)cc2)s1)NC1CC1	4	-0.2	2	0	2%	1.3	-6.7
O=C(NCc1ccco1)C1CCN(c2nc3ccccc3n2Cc2ccc(F)cc2)CC1	10	0.4	-17	4	3%	-2.5	-0.4
CCOc1ccccc1CN1CCNC(=O)C1CC(=O)NC1CCCCC1 (stereo not given)	-3	-7.2	-5	7	/	1.2	3.5
COc1ccc(S(=O)(=O)NCC(c2cccnc2)N2CCN(Cc3ccccc3)CC2)cc1 (stereo not given)	2	4.0	0	-4	-5%	4.9	0.3
COc1cccc(C(=O)NCCN2C(=O)S/C(=C/c3cccs3)C2=O)c1OC	-17	-0.6	-5	26	-5%	4.1	-1.4
O=C(CCl)N1c2ccccc2Oc2ccc3ccccc3c21	-5	/	/	/	1%	-98	/
CC(=O)Nc1ccc2c(c1)nc(C)n2-c1ccccc1	5	-2.4	-27	-7	-9%	1.9	0.1
CCOc1ccc(NC(=O)CN(C)C(=O)c2cc(S(=O)(=O)N3CCCCCC3)ccc2OC)cc1OCC	-4	2.6	1	-3	2%	-1.6	1.2
O=C(NCCc1ccccc1F)C1CCC(=O)N(Cc2ccccc2F)C1 (stereo not given)	-22	-2.5	-6	13	/	2.3	-1.4
O=C(CC(=O)NCc1cccnc1)NCc1cccnc1	-10	-6.2	-1	-13	14%	3.5	-1.2
Cc1ccc(SCC(=O)NNC(=O)C2CCCCC2)cc1	1	0.5	0	25	4%	0.2	-1.5
Nc1nnc(-c2cccc(F)c2)s1	-8	5.2	-8	-5	2%	-1.1	-1.0
COc1ccccc1CNC(=O)C(=O)NCCC1CCCCN1S(=O)(=O)c1cccs1 (stereo not given)	6	-0.9	-5	-11	10%	4.1	4.5
CCCCCCCCCCCCCCCC[n+]1ccc(/C=N/O)cc1	3	13*	-2	/	-9%	40*	/
O=C(Nc1cnccn1)c1ccc(Cl)cc1	18	-3.4	-23	-7	-13%	3.7	2.5
CCc1ccc(C(=O)COC(=O)c2cncc(Br)c2)cc1	0	0.0	-3	1	-119%	0.3	-1.4
COc1ccc2cc(C)c3nnc(SCC(=O)Nc4cc(OC)c(OC)cc4C(=O)O)n3c2c1	1	1.3	-15	-3	/	3.5	-5.2
O=C(NCc1cccs1)C1CCCN1C(=O)Nc1ccc(F)cc1 (stereo not given)	-2	1.3	/	3	11%	-0.6	-2.1
O=C(Oc1ccc2c3c(c(=O)oc2c1)CCC3)c1ccccc1[N+](=O)[O-]	/	3.5	-41	-10	/	/	-1.0
COc1cc(NC(=S)NC(=O)c2c(OC)cccc2OC)ccc1NC(=O)c1cccs1	-1	-4.7	-1	21	-3%	0.0	1.4
COC(=O)c1c(C(=O)OC)c2cc(C)ccn2c1Cl	-4	4.8	-11	-1	2%	-2.2	-0.7
COc1cc(OC)c(OC)cc1CN1CCSCC1	-8	3.3	-9	22	-2%	0.9	-2.0
Cc1cnc(C(=O)Oc2cccc(Cl)c2Cl)cn1	9	-0.6	10	3	3%	-0.8	0.7
CC(=O)N(c1ccc(C)cc1)S(=O)(=O)c1ccc(Cl)cc1	-4	3.1	-5	25	9%	-0.9	2.8
CC1CCCC(NC(=O)COC(=O)CCC(=O)c2cccs2)C1C (stereo not given)	-6	3.6	-4	/	-2%	-1.0	/
Cc1c(C(=O)c2ccc([N+](=O)[O-])cc2)c(=O)n(C)c(=O)n1C	0	2.9	-18	-17	-3%	4.7	0.0
CN(c1ccccc1)S(=O)(=O)c1cccc(C(=O)N2CCCCCC2)c1	4	/	/	/	-4%	-3.6	/
CCC1CCCCN1C(=S)NC1CCCCC1 (stereo not given)	1	-0.9	-1	6	/	0.1	-0.4
Cc1ccc(S(=O)(=O)Nc2nnc(C(C)(C)C)s2)cc1	3	3.4	29	1	/	1.2	-4.2
CSc1ccc(CNC(=O)c2ccc(NC(=O)C3=CSCCO3)cc2)cc1	98*	6.1	-5	3	/	-3.3	1.7
Cc1ccsc1/C=N/Nc1nc2ccccc2s1	-2	/	/	-17	-4%	-2.5	?
Cc1cc(C)n(-c2ccc(N3CCOCC3)nn2)n1	5	-2.0	-8	4	-3%	1.0	1.6
Cc1cc(C)c2c(c1)NC(=O)C2(O)CC(=O)c1cccs1 (stereo not given)	3	-1.6	-3	/	4%	0.8	/
CCCCC(=O)Nc1ccc(N2CCN(C(=O)c3ccco3)CC2)cc1	1	-1.1	-5	-2	/	2.6	0.5
Cc1cc(NC(=O)c2nn(C)c(C)c2[N+](=O)[O-])no1	1	0.9	2	5	14%	3.4	2.3
CCOC(=O)C1CCN(C(=O)CNC(=O)c2nn(-c3ccc(OC)c(OC)c3)c(=O)c3ccccc23)CC1	10	-3.2	-1	-4	/	4.5	0.2
COc1ccc(CCNC(=O)c2ccc(N(C)S(=O)(=O)c3ccc(C)cc3)cc2)cc1OC	4	2.9	/	18	-3%	4.9	3.3
CCn1c(CNC(=O)Cc2ccc(OC)cc2)nnc1SCC(=O)c1ccc(Br)cc1	-3	0.6	-9	-13	5%	4.1	-1.0
CCCOc1ccc(/C(O)=C2/C(=O)C(=O)N(CCCOC)C2c2ccncc2)cc1 (stereo not given)	4	-3.3	-16	0	0%	1.0	0.2
COc1ccc(CC(=O)Nc2ccccc2N2CCCC2)cc1OC	-2	-3.5	98*	2	/	2.8	6.8
O=S1(=O)N=C(Nc2ccc(O)cc2)c2ccccc21	4	-5.3	99*	4	1%	-0.9	3.0
Cc1ccc(Oc2ccc(NC(=O)c3ccco3)cc2)cc1	4	6.4	-8	-1	30%	0.1	-0.4
O=C(NCC(=O)N(CC1CCCO1)C(C(=O)NC1CCCC1)c1ccc(F)cc1)c1ccco1 (stereo not given)	-15	-2.3	-2	-5	12%	-1.8	5.7
COc1ccc(C(CC(=O)N2CCCCC2)c2c(O)cc(OC)cc2OC)cc1 (stereo not given)	-4	7.1	/	7	/	1.6	2.4
CCOc1cccc(C(=O)NNC(=O)CCC(=O)O)c1	3	-1.6	-23	3	1%	1.6	7.1
Cc1ccc2nc(SCC(=O)Nc3ccc4c(c3)OCCO4)[nH]c2c1	-7	-0.5	5	5	-4%	-1.1	3.5
CCCCn1c(NS(=O)(=O)c2ccc(C)cc2)c(S(=O)(=O)c2ccccc2)c2nc3ccccc3nc21	23	i	-5	35	7%	-4.0	14
Cc1ccccc1C(=O)NCC(=O)NC1CC1	-2	5.0	-9	/	/	-2.8	/
CC(C)(C)c1ccc(C(=O)N2CCCC2c2cccs2)cc1 (stereo not given)	6	-0.6	-25	4	-4%	6.0	-3.4

An excerpt from the list above, for reference:
SMILES	B2AR ag	LANA-H2A inh	ALR H2O2 inh	Calb FLC	Vif A3G	HNF4A DNA FP	RanGTP-Impb inh
COc1ccc(-c2ccc(SC)nn2)cc1	-8	0.1	-12	1	-9%	2.2	-0.6
CCC1CCCCN1C(=S)Nc1ccc(S(=O)(=O)Nc2ncccn2)cc1 (stereo not given)	4	-6.1	-6	0	2%	1.0	1.0

Next part
SMILES	B2AR ag	LANA-H2A inh	ALR H2O2 inh	Calb FLC	Vif A3G	HNF4A DNA FP	RanGTP-Impb inh
CSc1cccc(CNC(=O)C2CCC(=O)N(CCc3ccccn3)C2)c1 (stereo not given)	1	2.1	5	/	/	1.4	/
O=C(CN(c1ccc(Cl)c(C(F)(F)F)c1)S(=O)(=O)c1ccccc1)N1CCOCC1	5	0.2	-1	-9	7%	3.2	-1.4
COC(=O)c1ccsc1NC(=O)CCS(=O)(=O)c1ccccc1	5	-1.0	-13	40	-19%	-3.8	5.8
Cc1ccccc1-n1nnnc1SC(C)C(=O)Nc1ccc(N2CCN(C)CC2)cc1 (stereo not given)	5	-1.4	-1	/	/	4.2	2.0
O=C(COc1ccc(S(=O)(=O)NC2CCCC2)cc1)NCC1CCCO1 (stereo not given)	4	2.0	5	-1	-2%	5.4	-3.9
NC(=O)CC(NC(=O)Cc1ccc(Br)cc1)c1ccc(NC2CC3CCC2C3)c([N+](=O)[O-])c1 (stereo not given)	-2	-1.2	0	-17	/	4.5	5.2
CCc1ccc(NC(=O)c2c(Cl)nc(C)c(Cl)c2C)cc1	-6	-3.8	2	-4	/	0.5	1.9
Cc1ccc(C=NNC(=O)c2cc(-c3cccnc3)nc3ccccc23)o1	-9	-6.0	-2	/	-4%	0.4	/
O=C(Nc1ccc2c(c1)OCCO2)C1CCN(S(=O)(=O)c2cccc3nsnc23)CC1	9	-3.3	-17	-42	-10%	0.6	5.1
Cc1ccc(C(=O)Nc2ccccc2Cl)cc1	5	1.1	/	-1	/	-4.5	1.1
Cc1c(C(=O)O)cnc2c([N+](=O)[O-])cnn12	-9	0.4	-3	4	-1%	-3.0	-2.2
Cc1ccc(S(=O)(=O)Oc2ccc(C)cc2/C=N/N=C2\NC(=O)C(C)S2)cc1 (stereo not given)	4	4.1	-5	-6	19%	0.6	-1.9
O=C(O)CSc1nc2ccccc2c(=O)[nH]1	1	-6.8	-3	3	2%	12	-0.3
COc1cc(-n2c(=O)c3ccccc3n(CC(=O)c3ccc(Br)cc3)c2=O)cc(OC)c1OC	16	-3.6	-8	-2	7%	13	1.9
COc1cc(C(=O)NCCN2CCN(C(=O)c3cc(OC)c(OC)c(OC)c3)CC2)cc(OC)c1OC	0	-5.1	-2	-4	/	-3.7	-2.0
CCC1Nc2ncnc(N3CCOCC3)c2N(Cc2ccc(Cl)cc2)C1=O (stereo not given)	-3	2.4	6	/	/	-0.8	/
CCOC(=O)c1ccc(N/C=C/C(=O)c2ccco2)cc1	11	-1.7	-4	-23	?	4.4	-5.4
Cc1nc(SCC(=O)Nc2ccc3c(c2)OCCO3)nc(C)c1C	3	2.9	-11	-32	-10%	6.4	-1.0
CCOc1cc2[nH]c(=O)n(Cc3cccc(OC)c3)c(=O)c2cc1OCC	1	1.0	0	-1	0%	3.4	-2.7
